Bioassay records from PubChem.
HSV replic up = increases HSV replication in cells. 0.005% of 220,000 active. HSV replication augmentation in cells, fold increase. maximum fold increase;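 active = peak rise of 1.5-fold or more in the series; tested in PC3 cells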;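 also: first round at 10 µM; read as green reporter fluorescence; hits show the peak of a series up to 25 µM; 1 = signal of infected wells without compound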
GALR2 agonist = agonists of human galanin receptor 2 (GALR2); O43603; GALR2-expressing cells, agonist activation read-out; activation, %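 (tested at 5 µM)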; 0.48% of 140,000 active;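 active = above mean plus 3 SD of all compounds, about 5% in these data, not always enough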;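 also: 0% = vehicle buffer wells and 100% = reference agonist at full effect; tested in CHO reporter cells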
Target sequence (O43603 whole entry, looked up): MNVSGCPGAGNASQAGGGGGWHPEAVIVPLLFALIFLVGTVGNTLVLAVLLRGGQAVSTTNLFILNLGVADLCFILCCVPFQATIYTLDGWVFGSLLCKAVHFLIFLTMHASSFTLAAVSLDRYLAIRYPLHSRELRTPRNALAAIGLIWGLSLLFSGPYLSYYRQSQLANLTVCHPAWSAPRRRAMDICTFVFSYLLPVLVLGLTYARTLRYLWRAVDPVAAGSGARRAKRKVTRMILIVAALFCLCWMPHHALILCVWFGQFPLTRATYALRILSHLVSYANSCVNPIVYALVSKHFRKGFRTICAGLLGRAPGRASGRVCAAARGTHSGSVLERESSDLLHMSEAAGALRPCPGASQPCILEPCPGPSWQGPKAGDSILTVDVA
PKD1 inh = blocks activity of human protein kinase D1 | 0.056% of 200,000 active | inhibition, %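 (about 10 µM by stock and volumes)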 | Q15139 | PKD1 kinase fluorescence polarization assay;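 active = inhibition of 50% or more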;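 also: controls were vehicle for no effect and a reference inhibitor for full effect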
RGS16-Gao HTS = RGS16-Galphao interaction regulator (human). binding response (% of control), % at 10 µM. bead-based flow cytometry RGS16-Galphao binding, fluorescence; actives lie on both sides. 0.38% of 220,000 active;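 active = below 25% or above 175%, edge rows of some plates excepted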;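 also: Galphao activated by GDP with aluminum fluoride before binding; 100% = wells without compound and 0% = beads without RGS; some results beyond the cut were filed as inactive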
Target sequence (O15492 whole entry, looked up): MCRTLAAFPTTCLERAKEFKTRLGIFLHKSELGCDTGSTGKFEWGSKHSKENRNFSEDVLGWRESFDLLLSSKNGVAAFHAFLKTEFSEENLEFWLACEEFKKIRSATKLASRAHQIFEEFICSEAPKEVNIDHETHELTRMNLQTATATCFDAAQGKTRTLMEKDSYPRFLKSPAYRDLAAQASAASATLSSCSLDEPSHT
Target sequence (P09471 whole entry, looked up): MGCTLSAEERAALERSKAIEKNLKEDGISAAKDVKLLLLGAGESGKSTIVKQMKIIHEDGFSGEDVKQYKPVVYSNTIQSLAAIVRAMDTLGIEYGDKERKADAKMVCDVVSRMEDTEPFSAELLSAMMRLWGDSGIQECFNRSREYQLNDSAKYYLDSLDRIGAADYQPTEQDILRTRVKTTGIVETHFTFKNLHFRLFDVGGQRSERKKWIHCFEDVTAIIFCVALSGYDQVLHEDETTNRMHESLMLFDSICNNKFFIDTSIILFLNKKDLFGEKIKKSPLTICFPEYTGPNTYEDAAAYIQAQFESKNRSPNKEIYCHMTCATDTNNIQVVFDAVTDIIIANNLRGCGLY
INS promoter inh = TRM-6 insulin promoter activity inhibition | TRM-6 cells (human fetal islet line), insulin promoter-eGFP reporter, imaging; reporter expression induced with tamoxifen | inhibition, % at 2 µM | 0.9% of 130,000 active | AID 1273;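 active = inhibition above the mean plus 3 SD, with well images judged a real hit on visual review, cut at about 60% in these data, passing the limit was not always enough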
INS promoter inh cell count = also measured in INS promoter inh; calls as there; normalized cell count, %; measured here: cell count, toxicity; reference of the scale not given here;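 cells exposed to compound for 48 h; stained nuclei by imaging scaled within each plate; lower means fewer cells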
HSV replic up primary fold = recorded beside HSV replic up, whose call it bears; fold increase; compound at 10 µM; measured here: primary screen fold increase 10 uM; tested in PC3 cells;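 GFP signal in the first replicate; 1 = infected wells without compound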
* marks the source's active call; other numbers are inactive results; i = inactive; / = no result given.

SMILES	HSV replic up	HSV replic up primary fold	GALR2 agonist	PKD1 inh	RGS16-Gao HTS	INS promoter inh	INS promoter inh cell count
CCOC(=O)c1sc2ncn(/N=C/c3ccc(O)cc3)c(=O)c2c1C	i	1.1	/	-4	117	/	/
Cn1cnnc1Sc1ccc(C(F)(F)F)cc1[N+](=O)[O-]	i	0.89	/	-5	104	/	/
CCOC(=O)N1CCN(C(=O)COc2ccc(Cl)c(C)c2)CC1	i	0.99	/	-7	101	36	106
Cc1sc2ncnc(NCc3cccnc3)c2c1C	i	0.99	/	-1	90	43	61
Cc1ccccc1Cn1nc(C)c(NC(=O)C(F)(F)F)c1C	i	1	-0.8	-6	109	25	116
CC(OC(=O)c1ccc(NS(=O)(=O)c2ccc3[nH]c(=O)[nH]c3c2)cc1)C(=O)Nc1cccc(Cl)c1Cl (configuration not stated)	i	0.9	/	/	101	/	/
COC(=O)[C@@H]1CC[C@H](C)[C@@H](c2ccc(C)cc2)N1C(=O)c1ccc(/C=N/OCC[C@@H]2C=C[C@H](OC(C)=O)[C@@H](COC(C)=O)O2)cc1	/	/	-1.3	-9	74	0	84
Cc1nn(CC(=O)N2CCCc3ccccc32)c(C)c1[N+](=O)[O-]	i	0.86	/	-2	111	20	91
CCOC(=O)c1ccc(/C=C2/C=C(c3ccccc3)N(c3ccc(Cl)c(C(=O)O)c3)C2=O)cc1	i	1.1	0.6	5	98	25	129
CC(NC(=S)Nc1ccc(S(=O)(=O)N2CCOCC2)cc1)C1CC2CCC1C2 (configuration not stated)	i	0.78	0.8	2	30	0	98
O=c1c(C/C=C/c2ccccc2)c(O)nc2n1CCCS2	i	1	-0.1	2	109	/	/
COc1ccc(S(=O)(=O)N2CCCCCC2)cc1N(C)S(=O)(=O)c1ccccc1	i	1.2	-1.4	-7	150	/	/
CCOC(=O)COc1cccc2c(=O)n(CC(=O)N3CCN(C(=O)OCC)CC3)ccc12	i	0.94	-1.9	-4	65	/	/
CCOc1ccccc1C(=O)NC(C(=O)Nc1ccccc1N1CCOCC1)C(C)C (configuration not stated)	i	0.93	-1.0	-9	104	/	/
CC(=O)Nc1ccc(S(=O)(=O)NCCSCc2ccccc2Cl)cc1	i	1	-1.4	-7	198	7	85
Clc1ccc(-c2nnc(N3CCOCC3)o2)cc1	i	1.2	/	/	100	/	/
COc1cc(/C=C2/CCC/C(=C\c3cc(O)c(OC)c(Cl)c3)C2=O)cc(Cl)c1O	/	/	0.0	-1	99	24	75
COc1ccc(NC(=S)N(CCCN2CCOCC2)Cc2cn(C)c3ccccc23)cc1	i	0.69	-0.4	-2	100	-100	154
COc1ccc(NCc2nnc(SCC(=O)Nc3ccc(OC)cc3)n2C)cc1	i	1	/	-2	93	/	/
C/C(=N\NC(=O)C12CCC(C)(C(=O)O1)C2(C)C)c1ccccc1O (configuration not stated)	i	0.7	/	/	95	/	/
CCOC(=O)C(C(=O)OCC)C1N=C(N)N=C2Oc3ccccc3N21 (configuration not stated)	i	0.99	0.5	-1	108	/	/
CCOC(=O)c1c(NC(=O)/C=C/c2ccc3c(c2)OCO3)sc(C)c1C	i	0.96	-1.1	-4	111	33	122
CSc1ncc(Cl)c(C(=O)Nc2ccc(S(=O)(=O)N3CCOCC3)cc2)n1	i	0.9	-1.6	-7	101	54	47
O=C(N/N=C/c1ccc2c(c1)OCO2)c1sc2cccc(Cl)c2c1Cl	i	0.88	-0.1	-3	112	7	118
Cc1ccc(S(=O)(=O)N2CCN(C(=O)CCC(=O)NCCc3ccc(F)cc3)CC2)cc1	i	1	/	1	97	/	/
COc1ccc2[nH]c3c(=O)n(CCCCC(=O)N4CCC(C(N)=O)CC4)c(=S)[nH]c3c2c1	i	1.1	-1.3	18	97	/	/
O=C(CCc1nc2ccccc2s1)Nc1ccccc1	i	1.1	-0.1	-3	103	/	/
Cn1cnnc1SCC(=O)N1N=C2/C(=C/c3ccco3)CCCC2C1c1ccco1 (configuration not stated)	i	0.91	-2.5	-1	91	37	111
CC(=O)Oc1ccccc1N(C(C)=O)S(=O)(=O)c1ccc(C)cc1	i	1.2	/	-8	85	-73	72
COc1ccc(C(=O)OCc2c(C)noc2C)cc1	i	0.89	/	5	108	-25	63

In another format: entries from further up
> CSc1ncc(Cl)c(C(=O)Nc2ccc(S(=O)(=O)N3CCOCC3)cc2)n1
  HSV replic up: i; HSV replic up primary fold: 0.9; GALR2 agonist: -1.6; PKD1 inh: -7; RGS16-Gao HTS: 101; INS promoter inh: 54; INS promoter inh cell count: 47

> O=C(N/N=C/c1ccc2c(c1)OCO2)c1sc2cccc(Cl)c2c1Cl
  HSV replic up: i; HSV replic up primary fold: 0.88; GALR2 agonist: -0.1; PKD1 inh: -3; RGS16-Gao HTS: 112; INS promoter inh: 7; INS promoter inh cell count: 118

> Cc1ccc(S(=O)(=O)N2CCN(C(=O)CCC(=O)NCCc3ccc(F)cc3)CC2)cc1
  HSV replic up: i; HSV replic up primary fold: 1; GALR2 agonist: /; PKD1 inh: 1; RGS16-Gao HTS: 97; INS promoter inh: /; INS promoter inh cell count: /

> COc1ccc2[nH]c3c(=O)n(CCCCC(=O)N4CCC(C(N)=O)CC4)c(=S)[nH]c3c2c1
  HSV replic up: i; HSV replic up primary fold: 1.1; GALR2 agonist: -1.3; PKD1 inh: 18; RGS16-Gao HTS: 97; INS promoter inh: /; INS promoter inh cell count: /

Following part
SMILES	HSV replic up	HSV replic up primary fold	GALR2 agonist	PKD1 inh	RGS16-Gao HTS	INS promoter inh	INS promoter inh cell count
CCc1c(O)nc(SCC(=O)Nc2nc3ccccc3s2)n(-c2ccc(C)cc2)c1=O	i	1	/	/	102	/	/
CCOc1ccc(-c2nn3c(-c4ccc(F)cc4)nnc3s2)cc1	i	0.98	-2.9	-6	/	43	129
CCOC(=O)c1cnc2c(cnn2C)c1NCCC(O)C(F)(F)F (configuration not stated)	i	0.8	-2.9	1	71	-29	85
CCNC(=S)NNC(=O)c1cc(-c2cccc(OC)c2)nc2ccccc12	i	0.95	-2.2	-10	123	0	80
Cc1cc(C)c(S(=O)(=O)N(C)c2ccccc2)c(C)c1	/	/	/	-10	90	-14	58
Cc1ccc(C(=O)COC(=O)c2ccc(O)cc2)cc1	i	0.98	/	-1	100	31	116
c1coc(-c2nnc3sc(C4CCCCC4)nn23)c1	i	0.85	-0.3	-12	86	/	/
O=C(CCC(=O)N1CCN(C2CCCC2)CC1)Nc1nnc(C(F)(F)F)s1	i	0.87	-0.5	-8	103	36	40
CN(Cc1ccncc1)C1CC(=O)N(c2ccc(F)cc2)C1=O (configuration not stated)	i	0.94	/	-4	100	/	/
O=C(NCCCN1CCOCC1)/C(=C/c1cccnc1)NC(=O)c1ccccc1	i	1.1	/	-3	100	-22	63
COC(=O)COc1ccc(S(=O)(=O)N2CCCCCC2)cc1	i	0.97	/	-4	98	25	87
COc1ccc(CCC(=O)N2c3ccccc3CC2C)cc1 (configuration not stated)	i	1.1	0.3	-7	119	-42	142
CC(=O)[C@@]1(O)CC[C@H]2[C@@H]3CCC4=CC(=O)CC[C@]4(C)[C@H]3[C@@H](O)C[C@@]21C	i	0.95	0.0	-7	107	32	69
Cc1nnc(SCC(=O)NNC(=O)c2ccco2)n1-c1cccc(Cl)c1	i	0.85	/	-5	106	27	38
CN1CCN(CC(=O)NC2CCCCC2)CC1	i	0.91	0.6	-1	99	40	152
CCCS(=O)(=O)c1nc(S(=O)(=O)c2ccc(C)cc2)c(NCc2ccco2)s1	/	/	0.3	-5	97	/	/
CCCCn1c2c(c(=N)c3c1CCC3)CCC2	i	0.94	-3.9	1	97	23	58
COc1cc(S(=O)(=O)N2CCC(O)(c3cccc(C(F)(F)F)c3)CC2)ccc1-n1cnnn1	i	0.81	-0.2	-9	99	-25	80
COc1cccc(-c2nn(-c3ccccc3)cc2C(=O)n2nnc3ccccc32)c1	i	0.76	-2.2	-4	106	53	62
Cc1cc(C)c2c(c1)C1C=CCC1C(c1ccc(S(=O)(=O)N3CCOCC3)cc1)N2 (configuration not stated)	i	0.8	-1.9	-2	56	/	/
COc1ccc(N=C2S/C(=C\c3ccc(OC(C)C(=O)O)c(OC)c3)C(=O)N2CCc2c[nH]c3ccccc23)cc1 (configuration not stated)	i	1	/	-5	101	/	/
O=C(c1cc([N+](=O)[O-])ccc1N1CCOCC1)N1CCCCC1	i	0.97	-0.9	10	94	0	44
CCOC(=O)C1CCN(Cc2coc3c(Cl)cc(Cl)cc3c2=O)CC1	i	0.89	-1.0	-1	94	59	193
O=C1CCCC2=C1C(c1cccs1)n1nc(SCc3ccc(C(=O)O)cc3)nc1N2 (configuration not stated)	i	1	/	/	104	/	/
Cc1cc(=O)oc2cc(Nc3ccccc3)ccc12	i	0.86	0.1	-2	143	50	50
COc1ccc(C(C)=O)cc1CSc1nnc(C)s1	i	0.72	-1.7	9	97	/	/
O=C(c1cccc(S(=O)(=O)Nc2ccccc2Cl)c1)N1CCN(C(=O)c2ccco2)CC1	i	0.96	/	1	105	/	/
COc1ccc(N(CC(=O)Nc2ccc(C)cn2)S(=O)(=O)c2c(C)noc2C)cc1	i	0.93	-2.0	-10	94	/	/
CCC(=O)NCCCCNC(=O)CC	i	0.83	-1.7	-4	104	44	71
Cn1c(=O)c2c(O)c(C=NCc3ccccc3)c(=O)n(C)c2n(C)c1=O	i	0.88	/	/	99	/	/
O=C1CSC(=Nc2ccc(Cl)cc2)N1Cc1ccco1	i	0.99	/	/	99	/	/
CCCNC(=O)CCn1c(=S)oc2ccccc21	i	1	/	/	86	/	/
Cc1ccccc1C(=O)NNC(=O)CCc1ccccc1	i	0.9	/	3	103	8	67
N#C/C(=C\C=C\c1ccccc1)C(=O)NCc1cccnc1	i	0.79	/	6	95	/	/
COc1ccc(-n2c3c(cc(C(=O)NCc4ccco4)c2=O)C(=O)CC(C)(C)C3)cc1	i	1.1	/	-4	118	/	/
CSc1nnc(CCCCCCCCc2nnc(SC)o2)o1	i	0.96	/	/	96	/	/
Cc1nonc1OCCNCc1c(C(=O)N(C)C)nc2ccc(Cl)cn12	i	0.98	/	0	75	43	75
Nc1nnc(SCC(=O)Nc2ccc(F)c(Cl)c2)n1-c1ccccc1	i	1	-0.7	5	95	10	94
O=c1oc2ccccc2cc1-c1ccccc1	i	1	/	-4	99	-18	62
O=C1c2ccccc2C(=O)N1OCc1ccccc1	i	0.94	-2.8	1	102	31	72
CCOC(=O)N1CCN(C(=O)Cn2nc(C)c3sc4ccccc4c3c2=O)CC1	i	0.9	-3.2	12	55	/	/
Clc1ccc(C(c2ccccc2)N2CCN(c3ccccn3)CC2)cc1 (configuration not stated)	i	1	/	/	100	/	/
CCc1ccc2nc(NC(=O)c3ccc(N4C(=O)CCC4=O)cc3)sc2c1	i	0.99	/	/	107	/	/
CCc1cccc(CC)c1NC(=O)CCCSc1nc2ccccc2s1	i	1.1	-1.8	10	93	-32	150
COc1ccc(-c2ccc(=O)n(CC(=O)NC3CCc4ccccc43)n2)cc1OC (configuration not stated)	i	0.94	/	3	103	/	/
Cc1cc(SCC(=O)c2ccccc2)nc(SCC(=O)c2ccccc2)n1	i	0.8	-0.2	-10	66	14	72
COC(=O)[C@H](C)NC(=O)NC1CCCc2ccccc21 (some centres not stated)	i	0.89	-4.7	-1	102	/	/
CC1CN(C(=O)c2ccccc2C(=O)c2ncc[nH]2)CC(C)O1 (configuration not stated)	i	1.2	-1.1	-1	104	0	76
Nc1nc2n(n1)C(c1ccco1)CC(c1ccc(Cl)cc1)N2 (configuration not stated)	i	0.74	-0.8	11	100	/	/
CN(c1ccccc1C(=O)Nc1ccc2c(c1)OCO2)S(C)(=O)=O	i	1.1	1.2	-4	94	-8	72
O=C(NC1CCCCC1)N1CCN(C2CCCCC2)CC1	i	0.88	-1.4	-10	208	33	69
COc1cccc(NC(=O)CCSc2ccc(C)cc2)c1	i	0.98	0.2	-4	103	-17	105
Cn1nc(C(F)(F)F)c(/C=N/OC(=O)c2ccccc2Cl)c1SCc1ccc(Cl)cc1	i	1.1	-1.7	-1	105	-2	118
COc1ccccc1/C=N/NC(=O)C1=NNC(c2ccccc2)(c2ccccc2)C1	/	/	-1.6	-5	97	64	211
O=C(CNC(=S)NC(=O)C1CCCCC1)c1ccccc1	i	0.84	-0.5	-2	102	47	84
CN(CC(=O)Nc1cccc([N+](=O)[O-])c1)S(=O)(=O)c1ccccc1	i	1.1	/	-3	101	0	124
Cc1ccc(NC(=O)CN2C(=O)S/C(=C\c3cc(C)n(C)c3C)C2=O)cc1	i	0.84	5.8	-3	97	/	/
CCCOc1ccc(N2C(=O)CC(N3CCN(C(=O)c4ccco4)CC3)C2=O)cc1 (configuration not stated)	i	0.89	-2.0	-6	102	/	/

2 entries drawn at random from the list so far, as already listed:
SMILES	HSV replic up	HSV replic up primary fold	GALR2 agonist	PKD1 inh	RGS16-Gao HTS	INS promoter inh	INS promoter inh cell count
COc1ccccc1/C=N/NC(=O)C1=NNC(c2ccccc2)(c2ccccc2)C1	/	/	-1.6	-5	97	64	211
CCCOc1ccc(N2C(=O)CC(N3CCN(C(=O)c4ccco4)CC3)C2=O)cc1 (configuration not stated)	i	0.89	-2.0	-6	102	/	/
